# Biofilm kill mix = mixture kills Candida albicans biofilm cells | 0.02% of 120,000 active | inhibition, % at 7.6 µM | C. albicans biofilm persisters + clotrimazole, fluorescence viability; primary screen in compound mixtures of four per well;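 active = inhibition above 30.3% in the primary screen of four-compound pools, then above 30% when the compound was retested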;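 note: compounds exposed to preformed 24 h biofilms for 48 h; the number belongs to the whole pool; some results filed as inactive read as strong as hits; inactives centre near 12; 0% = biofilm with clotrimazole alone and 100% = kill control; retested singly at about 60 µM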
#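 Assay system: C. albicans biofilms / Medium: RPMI/MOPS medium, pH 7.0 / Schedule: biofilm formation 24 h, compound exposure 48 h, 37 °C / Measured by: Alamar Blue fluorescence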
# The depositor's hits bear a star. An excerpt (hit frequency here may not be typical).
# A first look, 17 compounds:
SMILES,Biofilm kill mix
O=C1/C(=C/c2ccccc2)Oc2cc(OC(=O)N3CCOCC3)ccc21,14
O=C1ON=C(c2ccc(Cl)cc2)/C1=C/c1ccc(O)cc1,17
COc1cc(C(=O)Nc2cc(C)cc(C)c2)c(-n2cnnn2)cc1OC,9
COc1cc(C#N)ccc1OCC(=O)NCc1cccs1,18
CCc1ccccc1OCC(=O)Nc1nc(-c2cccnc2)cs1,14
O=C(N/N=C/c1ccncc1)NC12CC3CC(CC(C3)C1)C2,16
CCOC(=O)c1c(NC(=O)CN2C(=O)NC3(CCC(CC)CC3)C2=O)sc(C)c1-c1ccc(C)cc1 (stereo not drawn),-6
Cc1nn(C)cc1CNC(=O)c1ccc(F)cc1,7
Cc1ccc(NC(=O)COC(=O)c2ccc(F)cc2Cl)c(Br)c1,23
CN(c1ccccc1)S(=O)(=O)c1ccc(C(=O)OCC(=O)NC(N)=O)cc1,15
Cc1ccc2c(c1)COc1c3ccc(C(=O)N[C@@H](CO)C(C)C)cc3nn1-2,-2
CCNCC(=O)N1c2ccccc2CCc2ccc(NC(C)=O)cc21,11
COc1c(Br)cc([N+](=O)[O-])c(OC)c1C(=O)NC(=O)Nc1nc(C)cc(C)n1,-1
O=C(Oc1ccc(Cl)c2cccnc12)C12CC3CC(CC(C3)C1)C2,25
CCOC(=O)C1(CCOc2ccccc2)CCN(Cc2cccs2)CC1,18
COC(=O)Nc1nc2ccc(Br)cc2s1,13
O=C(C1CCCN(Cc2nc(-c3ccc(Cl)cc3)no2)C1)N1CCOCC1 (stereo not drawn),-2

# The list itself (from the top)
SMILES,Biofilm kill mix
O=C1/C(=C/c2ccccc2)Oc2cc(OC(=O)N3CCOCC3)ccc21,14
O=C1ON=C(c2ccc(Cl)cc2)/C1=C/c1ccc(O)cc1,17
COc1cc(C(=O)Nc2cc(C)cc(C)c2)c(-n2cnnn2)cc1OC,9
COc1cc(C#N)ccc1OCC(=O)NCc1cccs1,18
CCc1ccccc1OCC(=O)Nc1nc(-c2cccnc2)cs1,14
O=C(N/N=C/c1ccncc1)NC12CC3CC(CC(C3)C1)C2,16
CCOC(=O)c1c(NC(=O)CN2C(=O)NC3(CCC(CC)CC3)C2=O)sc(C)c1-c1ccc(C)cc1 (stereo not drawn),-6
Cc1nn(C)cc1CNC(=O)c1ccc(F)cc1,7
Cc1ccc(NC(=O)COC(=O)c2ccc(F)cc2Cl)c(Br)c1,23
CN(c1ccccc1)S(=O)(=O)c1ccc(C(=O)OCC(=O)NC(N)=O)cc1,15
Cc1ccc2c(c1)COc1c3ccc(C(=O)N[C@@H](CO)C(C)C)cc3nn1-2,-2
CCNCC(=O)N1c2ccccc2CCc2ccc(NC(C)=O)cc21,11
COc1c(Br)cc([N+](=O)[O-])c(OC)c1C(=O)NC(=O)Nc1nc(C)cc(C)n1,-1
O=C(Oc1ccc(Cl)c2cccnc12)C12CC3CC(CC(C3)C1)C2,25
CCOC(=O)C1(CCOc2ccccc2)CCN(Cc2cccs2)CC1,18
COC(=O)Nc1nc2ccc(Br)cc2s1,13
O=C(C1CCCN(Cc2nc(-c3ccc(Cl)cc3)no2)C1)N1CCOCC1 (stereo not drawn),-2
CCOC(=O)c1ccc(NC(=S)NCCCN2CCCC2=O)cc1,5
COc1ccc(CC(=O)NNC2=Nc3cccc4cccc2c34)cc1OC,15
NC(=O)c1c(/N=C/c2cccs2)sc2c1CCCC2,18
COc1ccc(CNC(=O)COC(=O)CCc2c[nH]c3ccccc23)cc1,-8
CSCCC(NC(=O)C12CC3CC(CC(C3)C1)C2)C(=O)OCC(=O)c1ccc(C)cc1 (stereo not drawn),18
COc1ccc(/C=C/C(=O)OCC(=O)Nc2ccc(S(N)(=O)=O)cc2)cc1OC,1
Cc1cccc(N2CCN(c3ccc(C(N)=O)cc3[N+](=O)[O-])CC2)c1C,17
Cc1[nH]c2ccccc2c1/C=N/NC(=O)c1cc(-c2ccccc2)n[nH]1,2
Cc1ccccc1OCC(=O)NN1CCN(C)CC1,8
COc1cc(C)nc(Oc2ccc(OCCOc3ccccc3)nn2)n1,24
CCCOC(=O)c1ccc(O)c(OC)c1,26
COC(=O)c1ccc(/C=N\NC(=O)CC(=O)NCCc2ccccc2)cc1,27
Cc1ccccc1-n1c(-c2csc(C)c2C)n[nH]c1=S,9
COc1cc(OC)c(N(C)S(=O)(=O)c2cccc(C(=O)NC3=NCCS3)c2)cc1Cl,12
Cc1cc(Cl)ccc1OCCCC(=O)N/N=C/c1cccc([N+](=O)[O-])c1,11
COc1cnc(SCCC(F)=C(F)F)[nH]c1=O,-6
O=[N+]([O-])c1ccccc1S(=O)(=O)Oc1ccccc1/C=N/n1cnnc1,15
O=C(O)C1CC=CCC1C(=O)N1CCc2ccccc21 (stereo not drawn),14
Cc1ccc(CN2CCN(Cc3cnc(N(C)C)s3)CC2CCO)o1 (stereo not drawn),33
COc1ccc(CNC(=O)CS(=O)CC(=O)O)cc1OC (stereo not drawn),3
CSc1ccc(CN(C)CC(=O)Nc2ccc(C)cc2Br)cc1,3
O=C(NC(=S)N1CCCc2ccccc21)c1ccc(Cl)cc1,15
COC(=O)C1=C(C)NC(=S)NC1c1ccc(-c2ccccc2C(=O)OC)o1 (stereo not drawn),12
ClCC1=Nc2cccc3cccc(c23)N1,1
CCCCOc1ccc(NC(=O)[C@@H]2CCCN2C(=O)C2CCN(S(=O)(=O)c3ccc(C)cc3)CC2)cc1,19
O=C(NCc1ccncc1)C(=O)Nc1ccc2c(c1)OCO2,9
OCCC1CN(Cc2nc3ccccc3s2)CCN1C1CCCC1 (stereo not drawn),18
COc1cccc(CN(C)CC(=O)Nc2ccccc2C(=O)Nc2ccccc2)c1OC,18
CN(CC(=O)Nc1ccc(Cl)cc1)C(=O)c1cccc(S(=O)(=O)N(C)C)c1,6
CCN(CC)S(=O)(=O)c1ccc2c(c1)[nH]c(=S)n2CC,1
Cc1nnc(NC(=O)CC(NC(=O)C(F)(F)F)c2ccccc2)s1 (stereo not drawn),11
O=c1nc(SCc2ccc(Cl)cc2)nc(-c2ccccc2)[nH]1,16
CCCCOC(=O)Nc1sc2c(c1C(=O)OC)CCC2,18
# (more compounds)
SMILES,Biofilm kill mix
CCNC(=S)N(CCc1c(C)[nH]c2ccc(C)cc12)Cc1cc(OC)c(OC)c(OC)c1,12
Cc1nn(C)c(N)c1-c1ccccc1,-2
CSCCC(NC(=O)c1ccc([N+](=O)[O-])cc1Cl)C(=O)OCC(=O)NCCCc1ccccc1 (stereo not drawn),8
CCCCNC(=O)c1ccc(-n2c(=S)[nH]c3ccccc3c2=O)cc1,13
CSCCC(NC(=O)c1ccc([N+](=O)[O-])cc1Cl)C(=O)OCC(=O)NCC(F)(F)F (stereo not drawn),8
CN(CC(=O)Nc1ccc(Cl)c(C(F)(F)F)c1)Cc1cc(=O)n2ccsc2n1,5
COc1ccc(Nc2nc(S(=O)(=O)c3ccc(C)cc3)c(Cl)s2)cc1,16
Cc1nn(Cc2ccccc2)c(Cl)c1C(=O)NCCc1ccc(Cl)cc1,22
Cc1nccn1CC(=O)N/N=C/c1c[nH]c2ccccc12,33
O=C(CO/N=C/c1ccccc1OC(F)F)N1CCc2ccccc21,25
CCOc1ccc(C2NC(=O)C(C#N)=C(S)N2c2cccc(C)c2)cc1OC (stereo not drawn),25
Cc1noc(C)c1COc1ccc(CC(=O)NCc2ccccc2)cc1,-4
CC1CCN(c2cc(N(C)CCO)c([N+](=O)[O-])c3nonc23)CC1,8
CCOC(=O)C(NCCc1ccccc1F)(NC(C)=O)C(F)(F)F (stereo not drawn),11
COc1cccc(Nc2n[nH]c(=S)s2)c1,0
O=c1c2c3c(sc2nc(NCCOCCO)n1Cc1ccco1)CCCCC3,29
C=CCN(c1ccc(Cl)cc1)S(=O)(=O)c1cccc(C(=O)OCC(=O)N(C)C)c1,11
Cc1ccn2cc(-c3cccc([N+](=O)[O-])c3)nc2c1,8
C/C(=C\C=C\c1ccccc1)C(=O)c1c(C)cc(C)[nH]c1=O,19
Cc1c(C(=O)O)cc(C(C)(C)C)n1CCSCCO,28
Cc1cc(C)nc(NS(=O)(=O)c2ccc(NC(=O)Cc3ccccc3)cc2)n1,13
Cc1ccc(F)cc1NC(=O)C1CC(=O)N(CCc2ccccc2)C1 (stereo not drawn),13
CCn1c(SCC(=O)NCc2ccccc2)nnc1-c1cccnc1,15
CCOc1cc2c(cc1OCC)C(c1ccc(OC)c(OC)c1)N(c1ccc(C(=O)O)cc1)C(=O)C2 (stereo not drawn),11
COc1ccc(C(=O)N/C(=C\c2ccc([N+](=O)[O-])cc2)C(=O)NC(CCSC)C(=O)O)cc1 (stereo not drawn),13
O=C(CCC1CCCN(C(=O)c2ccc3[nH]ccc3c2)C1)N1CCN(c2ccccn2)CC1 (stereo not drawn),30
Cc1cc2cc(CNC(=O)c3cccc([N+](=O)[O-])c3)ccc2n1C,6
CC(C)(C)c1ccc(-c2nnc(SCC(=O)NC3CCS(=O)(=O)C3)n2N)cc1 (stereo not drawn),9
O=C(CCN1C(=O)C2CCCCC2C1=O)NNC(=O)c1cccc(Cl)c1 (stereo not drawn),9
CC1CCC(NC(=O)C2c3ccccc3C(=O)N2Cc2cccs2)CC1 (stereo not drawn),15
CCC(=O)NC(=S)NNC(=O)c1ccc(NC(=O)c2ccccc2)cc1,9
N=C1C(c2nc(-c3ccc(Br)cc3)cs2)=C(O)CN1NC(=O)c1ccc([N+](=O)[O-])cc1,16
COC(=O)c1ccc(CN2CCN(CC=C(C)C)C(CCO)C2)cc1 (stereo not drawn),15
CC1(C)C([N+](=O)[O-])C(c2ccc(Cl)cc2)NC(c2ccc(Cl)cc2)C1[N+](=O)[O-] (stereo not drawn),8
Cc1cc(C)c(S(=O)(=O)N2CCOC2CNC(=O)C(=O)NCCc2c[nH]c3ccccc23)c(C)c1 (stereo not drawn),7
CN1CCN(c2cc(C(F)(F)F)nc(-c3ccccn3)n2)CC1,-4
OC1C2CN3CCN(C2)CC1(Cc1ccccc1)C3 (stereo not drawn),13
CC1CCN(S(=O)(=O)c2ccc3c(c2)c(=O)c(C(=O)NCc2cccs2)cn3C)CC1,8
Cc1cccc(NC(=O)c2ccccc2-c2ccccc2)c1,14
Cc1cc(C)c(C)c(S(=O)(=O)N[C@@H](C)C(=O)OCc2cc(=O)n3cc(Br)ccc3n2)c1C,19
Cc1nnsc1C(=O)NNC(=O)Nc1ccccc1,7
CC(=O)n1cc([C@@H]2C=C(C(=O)N3CCN(Cc4ccc5c(c4)OCO5)CC3)O[C@H](OCc3ccc(CO)cc3)C2)c2ccccc21,17
COc1ccc(C(=O)c2ccccc2)c(OCC(=O)N(C)C)c1,19
Cc1cc(Cl)ccc1OCCCC(=O)NCCN1C(=O)S/C(=C\c2cccnc2)C1=O,3
O=C(c1cccc([N+](=O)[O-])c1)N1CCN(C(=O)c2ccco2)CC1,0
c1ccc(CN2CCOCCOCCOCCOCCOCCOCC2)cc1,2
Cc1ccc(NC(=O)c2ccco2)c(NC(=O)C2CCCO2)c1 (stereo not drawn),18
Cc1ccccc1C(=O)N1CCN(C(c2ccccc2)c2ccccc2)CC1,13
COc1cc(/C=C/C(=O)OCC(=O)Nc2sc3c(c2C#N)CCC(C)C3)ccc1OCC#N (stereo not drawn),12
O=C(CNC(=O)c1ccccc1Cl)OC1CCOC1=O (stereo not drawn),8
# Other compounds.
SMILES,Biofilm kill mix
Nc1cccc(S(=O)(=O)Nc2ccccc2)c1,19
CCN(CC)c1ncnc2c1cnn2Cc1ccc(Cl)cc1,8
O=C(CNS(=O)(=O)c1ccccc1)NNC(=O)C(Cl)Cl,17
Cc1ccc(C)c(NC(=S)/C(=C(\[O-])c2ccc(OC(F)F)cc2)[n+]2ccccc2)c1,17
COc1ccc(-c2nc(NC(=O)Cn3c(=O)oc4ccccc43)sc2C)cc1,11
COc1ccc(-c2ccc(OC)c([C@H]3[C@H]4C=CC[C@@H](C)[C@@H]4C(=O)N3Cc3ccccc3)c2)cc1,15
CCOC(=O)Cc1nc2ccccc2o1,-1
CCCOC(=O)c1ccc(NC(=O)c2cc(Cl)ccc2OC)cc1,17
c1ccc(CN2CCOCCOCCOCC2)cc1,14
O=C(O)COc1c(-c2ccc(Cl)cc2)oc2ccccc2c1=O,15
CC(Oc1ccc(Cl)cc1Cl)C(=O)N(C)c1ccccc1 (stereo not drawn),21
C#CCn1c(=NC(=O)c2ccc(Br)s2)sc2cc(NC(C)=O)ccc21,18
Fc1ccc(-n2cc(CNCCc3ccncc3)c(-c3ccccc3Cl)n2)cc1,11
COc1ccc(N2C(=O)CC(Sc3n[nH]c(-c4ccc(C)cc4)n3)C2=O)cc1 (stereo not drawn),23
CCC(C)(C)NC(=O)/C=C/c1cc(OC)c(OC)c(S(=O)(=O)N2CCc3ccccc32)c1,12
CCn1c(=O)c([N+](=O)[O-])c(Cl)c2ccccc21,10
Cc1cc(NC(=O)CSc2nnc(N)s2)c([N+](=O)[O-])cc1C,14
Cc1nn(-c2ccccn2)c2c1C(c1ccccc1Cl)C1=C(N2)c2ccccc2C1=O (stereo not drawn),16
CCN(c1ccccc1)S(=O)(=O)c1ccc(Cl)c(NC(=O)COC(=O)c2ccc[n+]([O-])c2)c1,3
O=C(Nc1cccc(F)c1)N1CCC(n2c(=O)[nH]c3ccccc32)CC1,14
Cc1cc(C(=O)C(=O)N(C)C)c(C)n1-c1ccc(Cl)c(Cl)c1,19
CCCCCC(=O)c1c(C)[nH]c(C(=O)OCC)c1C,4
O=C(COc1ccc2c(c1)OCO2)Nc1ccccc1C(F)(F)F,25
CCOc1cc(C(=O)O)cc(Cl)c1OC,8

# Given as labelled records: part of the list above
Cc1noc(C)c1COc1ccc(CC(=O)NCc2ccccc2)cc1
  Biofilm kill mix: -4

COc1cccc(CN(C)CC(=O)Nc2ccccc2C(=O)Nc2ccccc2)c1OC
  Biofilm kill mix: 18
